# High-throughput results deposited in PubChem BioAssay by Sanford-Burnham Center for Chemical Genomics.
# HNF4A DNA FP: change in binding of human HNF4 alpha to DNA; P41235; HNF4a-FITC DNA binding, fluorescence polarization, 1 h; activity change, % at 10 µM; actives 0.3% (n = 360,000); in the data active = activity change above about 30%, passing the limit was not always enough;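 also: controls were the assay level and a saturating level of protein; the project sought stronger binding though the title names inhibitors; some compounds called inactive have numbers as strong as hits; positive values seem to mean higher polarization but the record does not say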
# Target sequence (P41235 whole entry, looked up): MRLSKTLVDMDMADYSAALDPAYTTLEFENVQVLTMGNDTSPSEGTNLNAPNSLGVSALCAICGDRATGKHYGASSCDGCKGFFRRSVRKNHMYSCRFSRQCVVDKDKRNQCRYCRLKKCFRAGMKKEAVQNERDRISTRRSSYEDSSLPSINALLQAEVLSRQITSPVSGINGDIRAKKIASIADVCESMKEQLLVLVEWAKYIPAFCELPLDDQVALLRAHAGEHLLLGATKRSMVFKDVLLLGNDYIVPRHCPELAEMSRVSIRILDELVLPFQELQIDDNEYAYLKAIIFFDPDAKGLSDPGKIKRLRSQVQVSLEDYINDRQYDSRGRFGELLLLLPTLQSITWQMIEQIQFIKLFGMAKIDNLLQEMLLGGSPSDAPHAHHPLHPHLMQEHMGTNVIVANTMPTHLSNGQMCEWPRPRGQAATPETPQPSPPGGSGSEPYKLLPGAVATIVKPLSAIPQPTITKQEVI
# An asterisk follows results filed as active. The list is partial (hit frequency here may not be typical).
SMILES,HNF4A DNA FP
CCNC(=O)C1(C)CCCN(Cc2ccc(-n3ccnc3)cc2)C1 (stereo unspecified),-1.1
OC(Cc1cccc(Br)c1)c1ncc(-c2cccc(C(F)(F)F)c2)[nH]1 (stereo unspecified),-2.1
CCNC(=O)C1CCCN(C(=O)c2ccc(OC)c(OC)c2)CC1 (stereo unspecified),2.7
CCOc1ccc2nc(S(=O)(=O)NC(=O)C3(C)CCN3C(=O)c3c(C)noc3C)sc2c1 (stereo unspecified),-0.5
CC1(C(=O)NC2CCCCC2)CCC(=O)N1C1CCN(Cc2ccccc2)CC1 (stereo unspecified),-3.3
COCCCNC(=O)CC[C@H]1O[C@@H](n2cnc3c(NC(=O)c4ccccc4)ncnc32)[C@H](O)[C@@H]1O,-0.2
CC(C)S(=O)(=O)N1CCCC(c2cc(C(=O)NCc3cccnc3)no2)C1 (stereo unspecified),0.3
NC(=O)c1csc(-c2ccc(CO)o2)n1,26.6
CNc1cncc(-c2cccc(C(C)=O)c2)n1,2.2
Cc1c(C(=O)NCc2ccc([N+](=O)[O-])cc2)sc(=O)n1Cc1ccc2c(c1)OCO2,-2.1
COc1ccc(CNC(=O)COc2cc3c(c4oc(=O)cc(C)c24)CCC(C)(C)O3)c(OC)c1,6.9
CCOC(=O)[C@]12CCCC=C1N(Cc1ccc(Cl)cc1Cl)C(=O)[C@H](CC(=O)N1CCCCC1)C2,-0.4
Cc1ccc(Cn2cc(CN3CC(N(C)C)CS3(=O)=O)nn2)cc1 (stereo unspecified),-3.8
O=C(/C=C/[C@H]1O[C@@H](n2cnc3c(NC(=O)c4ccccc4)ncnc32)[C@H](O)[C@@H]1O)N[C@@H](CO)Cc1c[nH]c2ccccc12,-1.6
CCOC(=O)C1CCCN(C(=O)c2ccc(OC)c(OC)c2)CC1 (stereo unspecified),4.2
Cc1c(C(=O)Nc2cccc(Oc3ccccc3)c2)sc(=O)n1Cc1ccc(F)cc1,-2.1
O=C(Nc1ccc(C(=O)N2CCCCC2)cc1)[C@H]1O[C@@H](n2ccc(=O)[nH]c2=O)[C@H](O)[C@@H]1O,5.3
COCCNC(=O)C1(C)CCCN(Cc2sc(C)nc2C)C1 (stereo unspecified),0.2
Cc1c(C(=O)NCc2ccco2)sc(=O)n1Cc1ccc(S(C)(=O)=O)cc1,2.4
O=C(NCCCN1CCOCC1)C(=O)NCC1OCCN1S(=O)(=O)c1ccc(Cl)cc1 (stereo unspecified),-0.3
CC1=C(C(=O)N(C(C)C)C(C)C)CC(CC(=O)NCc2ccco2)C(=O)N1Cc1ccccc1 (stereo unspecified),-4.6
CCCCOc1cccc2c(=O)n(CC(=O)Nc3ccc4c(c3)OCCO4)ccc12,4.8
OC(c1ccccc1)(c1nc(-c2cccc(C(F)(F)F)c2)cs1)C(F)(F)F (stereo unspecified),-0.2
CCCCNC(=O)C1c2ccccc2OCC(=O)N1C1CC1 (stereo unspecified),-4.2
O=S1(=O)CC(N2CCN(CCO)CC2)CN1Cc1cn(Cc2ccc(F)cc2)nn1 (stereo unspecified),-1.4
NC(c1csc(Nc2ccccn2)n1)C1CCCCC1 (stereo unspecified),-1.1
Cc1c(C(=O)N2CCCCCC2(C)C(=O)NCC(C)C)oc2ccccc12 (stereo unspecified),0.9
CN(C)C(=O)C[C@@H]1C=C[C@@H](NC(=O)C2CCC2)[C@@H](CO)O1,0.3
O=C1OCCC1=COCCCCCCOC=C1CCOC1=O,1.9
CCOC(=O)[C@]12CCC=C1N(Cc1ccccc1)C(=O)[C@H](CC(=O)NCC13CC4CC(CC(C4)C1)C3)C2,1.3

# Fetched by compound from the list above:
SMILES,HNF4A DNA FP
O=C1OCCC1=COCCCCCCOC=C1CCOC1=O,1.9
CN(C)C(=O)C[C@@H]1C=C[C@@H](NC(=O)C2CCC2)[C@@H](CO)O1,0.3

# (cont.)
SMILES,HNF4A DNA FP
O=C(NC(c1ccc(-c2ccccc2)cc1)c1cnccn1)C1CCN(Cc2ccc3c(c2)OCO3)CC1 (stereo unspecified),1.2
Cc1ccc(NC(=O)c2cc(S(=O)(=O)N3CCCCC3)c[nH]2)cc1Cl,0.5
O=C(Nc1ccc2c(c1)OCO2)c1cc(C2CCCCN2C(=O)CCc2ccccc2)on1 (stereo unspecified),1.9
OC(c1ccc(Cl)cc1)c1ncc(-c2cccc(C(F)(F)F)c2)[nH]1 (stereo unspecified),1.5
CN(c1ccc([N+](=O)[O-])cc1)c1cc2c(c3c1ccn3C)C1CCC2C1 (stereo unspecified),-3.0
CN[C@H]1C[C@H]2c3[nH]c4ccc(-c5ccc(OC)cc5)cc4c3CCN2C(=O)[C@H]1[C@H](C)O,8.2
CN1OC[C@@H]2CN(C(=S)NCCc3ccccc3)[C@H](c3ccccc3Br)C[C@@H]21,-0.7
COc1cccc(S(=O)(=O)Nc2ccc3c(c2)[C@@H]2C[C@H](CC(=O)NCCc4ccccc4)O[C@H](CO)[C@@H]2O3)c1,-2.0
COc1cc(OC)nc(C(NC(=O)C2CCN(Cc3ccc(N(C)C)cc3)CC2)c2ccc(F)cc2)n1 (stereo unspecified),-2.8
COc1ccccc1-c1cc(NC=O)c2ncc(-c3cccc(C(=O)N(C)C)c3)n2c1,-0.7

# Five entries out of the list, sorted by formula weight, lowest first:
SMILES,HNF4A DNA FP
OC(c1ccc(Cl)cc1)c1ncc(-c2cccc(C(F)(F)F)c2)[nH]1 (stereo unspecified),1.5
O=C(Nc1ccc2c(c1)OCO2)c1cc(C2CCCCN2C(=O)CCc2ccccc2)on1 (stereo unspecified),1.9
O=C(NC(c1ccc(-c2ccccc2)cc1)c1cnccn1)C1CCN(Cc2ccc3c(c2)OCO3)CC1 (stereo unspecified),1.2
COc1cc(OC)nc(C(NC(=O)C2CCN(Cc3ccc(N(C)C)cc3)CC2)c2ccc(F)cc2)n1 (stereo unspecified),-2.8
COc1cccc(S(=O)(=O)Nc2ccc3c(c2)[C@@H]2C[C@H](CC(=O)NCCc4ccccc4)O[C@H](CO)[C@@H]2O3)c1,-2.0

# (cont.)
SMILES,HNF4A DNA FP
COc1ccc(CN(C)[C@H]2C[C@H]3c4[nH]c5ccccc5c4CCN3C[C@H]2[C@H](C)O)cc1,2.3
COc1cccc(CNC(=O)C2(C)CCCN2C(=O)C(C)C)c1 (stereo unspecified),4.2
O=C(Nc1nnc([C@@H]2O[C@H](CO)[C@@H](O)[C@H]2O)s1)Nc1cccc2c1CCCC2,-4.0
COc1ccc(CCC(=O)N2c3ccccc3N=C(c3ccc(C(F)(F)F)cc3)C2C(=O)NC(C)(C)C)cc1 (stereo unspecified),1.2
OC(c1ccc(F)cc1)c1nc(-c2ccc(F)c(Cl)c2)cs1 (stereo unspecified),0.1
CCCCn1nnnc1C1(C)CCC(=O)N1Cc1cccs1 (stereo unspecified),1.7
COc1ccc(N2CCN(C(=O)c3ccc4c(c3)NC(=O)C(CSCc3ccccc3F)N4)CC2)cc1 (stereo unspecified),34.4
Cc1c(C(=O)NCc2ccc3c(c2)OCCO3)sc(=O)n1Cc1ccccc1F,6.8
O=C(c1ccco1)N1CCN(C2CN(C3CCCC3)S(=O)(=O)C2)CC1 (stereo unspecified),-2.6
Cc1nc2ccccc2n1C(c1cccnc1)c1nc2ccccc2[nH]1 (stereo unspecified),-2.2
Cc1ccccc1Nc1nc(N)[nH]c(=O)c1N=O,-12.1
C[C@H]1COc2cccc(N3CCC[C@H]3CO)c2S(=O)(=O)N1,-0.3
O=C(Nc1ccncc1)c1cc(C2CCCCN2C(=O)CCc2ccccc2)on1 (stereo unspecified),-0.2
CC(CNC(=O)[C@@H](Cc1ccccc1)NC(=O)CC[C@H]1O[C@@H](n2ccc(=O)[nH]c2=O)[C@H](O)[C@@H]1O)c1ccccc1 (stereo partly specified),5.2
COc1cccc(C=NN(C)c2c([N+](=O)[O-])cc(C(F)(F)F)cc2[N+](=O)[O-])c1O,-0.6
O=C(NCc1ccncc1)[C@@H]1CCCN1C(=O)[C@H]1CCCN1C(=O)c1cccc2ccccc12,-4.2
COc1cc(-c2cnc3c(NC=O)cc(-c4ccsc4)cn23)cc(OC)c1OC,3.8
CC(C)[C@@H]1Cc2[nH][nH]c(=O)c2[C@H](c2ccc(F)cc2)O1,-0.6
COC(=O)Cc1ccc(OC2(C)CCN(Cc3csc4ccccc34)C2)cc1 (stereo unspecified),0.7
COC[C@@H]1CCCN1[C@H]1CS(=O)(=O)N[C@@H]1COCc1ccccc1,-3.4
C#CCn1c2ccccc2c(=O)n1C(C)CBr (stereo unspecified),1.1
Cc1ccc2c(c1)CO[C@@]21O[C@H](CCO)C[C@H](O)[C@H]1O,2.2
CCCCNS(=O)(=O)c1cccc(NC(=O)[C@@H]2O[C@H](CO)[C@@H](O)[C@H]2O)c1,3.0
Cc1ccccc1-c1cnc2c(c1)C(=O)N([C@H](C)CO)C[C@@H](C)[C@H](CN(C)C(=O)c1ccncc1)O2,-0.6
CC(=O)NC(c1ccccc1)c1nc(-c2cccs2)cs1 (stereo unspecified),-3.7
COCOc1ccc(-c2ncc(OC)nc2NC(=O)c2cc(C)oc2C)cc1,1.8
CCc1nc2ccc(C(=O)Nc3ccc(OC)c(OC)c3)cn2c1N(C)Cc1ccc(N(C)C)cc1,6.2
Fc1cccc(Cc2c(-c3cccc(Cl)c3)nc3c(Cl)cc(C(F)(F)F)cn23)c1,4.4
O=C(Nc1nnc([C@H]2C[C@H](O)[C@@H](CO)O2)s1)NC(c1ccccc1)c1ccccc1,0.3
O=C(Nc1ccc2c(c1)[C@@H]1C[C@@H](CC(=O)N3CCOCC3)O[C@@H](CO)[C@@H]1O2)NC1CCCC1,-1.3
CC(OC(=O)c1ccc(S(C)(=O)=O)c([N+](=O)[O-])c1)C(=O)NC1C2CC3CC(C2)CC1C3 (stereo unspecified),-0.3
CC(c1nc2ccccc2[nH]1)n1c(=O)c(-c2cccs2)nc2ccccc21 (stereo unspecified),8.3
c1ccc(-c2ccc3cnccc3n2)cc1,1.7
CC(C)(C)c1cc(NC(=O)C2(C)CCN2C(=O)C2(c3ccccc3)CC2)no1 (stereo unspecified),-0.1
COC(=O)[C@@]1(Cc2ccc(F)cc2)[C@H]2c3cc(C(=O)N(C)C)n(CCCNc4ncc(C(F)(F)F)cc4Cl)c3C[C@H]2CN1C(=O)c1ccccc1,0.9
CN1CCN(C(=O)c2ccc(-c3cnn(C)c3)c3ccoc23)CC1,-4.5
CC(C)C[C@H]1CNC(=O)C(=O)N1CC1CCN(CCc2ccccc2)CC1,-0.8
O=C(O)c1ccccc1-c1cccc2nncn12,-1.4
S=C(NCCCc1cnc[nH]1)NCCCN(Cc1ccccc1)c1ccc(Br)cn1,-0.7
Cc1cccc(C)c1NC(=O)C(c1ccccc1)N1CCN(C/C=C/c2ccccc2)CC1 (stereo unspecified),-0.6
O=C(NC(c1ccc(Cl)cc1)c1ccsc1)C1CCN(CCOc2ccc(Cl)cc2)CC1 (stereo unspecified),3.8
CCCc1nc2ccc(Cl)cn2c1Cc1ccccc1OC,-2.3
Cc1nc2ccccc2n1C(C)c1nc2ccccc2n1CC(=O)c1ccc(OC(F)(F)F)cc1 (stereo unspecified),0.7
Nc1[nH]c(C(=O)c2ccccc2)c(-c2ccc(Cl)cc2)c1C(=O)NCCc1c[nH]c2ccccc12,3.2
COc1ccc(C(C)(O)c2nc(-c3cccc(C(F)(F)F)c3)cs2)cc1 (stereo unspecified),1.8
CC(C)n1nnnc1C1c2ccccc2C(=O)N1CCc1ccccc1F (stereo unspecified),-0.3
CCCCN(C)c1c(C)nc2ccc(C(=O)NCc3cccs3)cn12,-3.3
O=C(NCc1ccccc1)c1[nH]c(C(F)(F)F)nc1-c1ccccc1,2.1
COc1ccc([C@H]2CN(c3ccc(OC)cc3)C(=O)[C@@H]2CC(=O)Nc2ccc(Br)cc2)cc1,3.1
CC1C(=O)N(Cc2cn(CCC3OCCCO3)nn2)CCS(=O)(=O)N1Cc1ccc(-c2ccccc2)cc1 (stereo unspecified),-3.6

# New compounds follow.
SMILES,HNF4A DNA FP
CCCNC(=O)C1(C)CCCN(C(=O)c2cc(C(C)(C)C)nn2C)C1 (stereo unspecified),7.0
Cc1cc(NC(=O)CS(=O)(=O)c2cn(Cc3cccc(Br)c3)c3ccccc23)no1,-2.4
COC(=O)c1cccc(N2C(=O)C[C@](Sc3ccc(C)cc3)(C(=O)OC)[C@H]2c2ccccc2)c1,-1.7
CC(C)c1cc(Cn2c3ccccc3c(=O)n2C(C)Cn2cc(-c3ccc(C(C)(C)C)cc3)nn2)on1 (stereo unspecified),2.5
CN(C)CCNc1ncnc2c1ncn2[C@H]1CN(Cc2ccc(F)cc2)C[C@@H](CO)O1,1.5
CCOc1ccc(CCN2C(=S)N([C@@H](Cc3ccccc3)CN3CCC[C@@H]3CN3C(=S)NC[C@@H]3Cc3ccc(O)cc3)C[C@@H]2CC(C)C)cc1,-1.2
Cc1ccsc1-c1cc2nc(NCCOc3ccccc3Cl)n(C)c(=O)c2s1,2.0
CCCS(=O)(=O)NC(=O)C1(C)CCN(C(=O)c2ccc(OC)cc2OC)C1 (stereo unspecified),-4.4
O=C1NC[C@H](CCCCN2CCN(CCc3ccccc3)C(=O)C2=O)N(CCc2ccccc2)C1=O,0.9
CC(C(=O)NC1CCCC1)n1c(-c2ccncc2)nc2ccccc21 (stereo unspecified),0.1
CC(O)(c1ccccc1)c1nc(-c2cc3ccccc3o2)cs1 (stereo unspecified),-2.2
CC(C)c1ccc(Nc2ncc3c(n2)CCN(C(=O)Nc2ccc(F)c(Cl)c2)C3)cc1,1.9
CCc1nc2c(OCC(=O)N3CCOCC3)cccn2c1N(C)C(=O)COc1ccccc1,1.9
CCOC(=O)c1cc(-c2cccc(O)c2)oc1C,-4.0
CCCC(=O)Nc1nnc([C@H]2C[C@H](O)[C@@H](CO)O2)s1,-0.9
O=C(c1ccc(CS(=O)c2ccc(Br)cc2)o1)N1CCN(C2CCCCC2)CC1 (stereo unspecified),2.7
NC(Cc1ccc(F)cc1)c1csc(Nc2cc(NCc3ccco3)ncn2)n1 (stereo unspecified),2.0
